# Screening results as filed in PubChem BioAssay.
# MT1-MMP promoter = inhibitors of MT1-MMP promoter transcription, cell-based, luciferase reporter, luminescence (AID 618). MT1-MMP promoter luciferase reporter cells, luminescence. calls from a first round at 10 µM; hits with a dose series show EC50 in µM. 0.62% of 87,000 active;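 active = over half of the reporter light lost at 10 µM or EC50 under 50 µM; inactive = the rest and hits that failed the dose series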;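 also: actives suppress MT1-MMP promoter-driven transcription so potencies describe inhibitors; HT1080 fibrosarcoma cells; overnight exposure; toxic or luciferase-blocking compounds were not removed from the actives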
# Hsc70 ATP site = Hsc70 inhibitors, probe displacement, primary screen, biochemical, fluorescence polarization (AID 568); Heat shock cognate 71 kDa protein (Homo sapiens); Hsc70 fluorescence polarization, probe displacement; higher % means a stronger effect; strong numbers were not always called active; one-dose displacement, % at 20 µM; IC50 in µM for titrated hits; 83,000 tested, under 10 active;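 active = displacement above 50% without optical interference and an IC50 on retest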;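 also: ATPase domain with a fluorescein-tagged ATP probe; 0% = vehicle and 100% = excess ADP; read after one hour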
# WNV NS2B-NS3 inh = inhibitors of WNV NS2B-NS3 protease, primary screen, biochemical, fluorogenic substrate. Genome polyprotein (West Nile virus), P06935. fluorogenic substrate Ex360/Em465; hits give low values. z-score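 (tested at a level between 10 and 100 µM)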. 0.18% of 65,000 active. AID 577, 2007;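 active = z-score at -3 or under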;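 also: score is relative to mean and spread of the compound wells of a plate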
# Target sequence (P06935 1371-1501 limits assumed): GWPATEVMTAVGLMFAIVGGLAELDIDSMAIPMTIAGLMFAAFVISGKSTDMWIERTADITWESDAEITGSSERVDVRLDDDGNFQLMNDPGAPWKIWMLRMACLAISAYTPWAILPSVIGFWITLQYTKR
# Target sequence (P06935 1502-1679 limits assumed): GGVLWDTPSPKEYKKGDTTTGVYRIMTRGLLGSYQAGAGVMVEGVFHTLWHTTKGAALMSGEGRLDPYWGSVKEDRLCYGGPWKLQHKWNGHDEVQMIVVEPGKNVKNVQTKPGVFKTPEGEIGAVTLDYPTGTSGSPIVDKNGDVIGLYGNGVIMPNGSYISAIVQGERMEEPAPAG
# * marks the source's active call; other numbers are inactive results; i = inactive; x = not tested or not shown. This is a random part of the collection. Share with any hit: about 0.77%.
SMILES,MT1-MMP promoter,Hsc70 ATP site,WNV NS2B-NS3 inh
CCC(=O)NC(Nc1cc(C)cc(C)n1)(C(F)(F)F)C(F)(F)F,i,-1.5%,x
CCCCc1nc2ccccc2n2cc3c(=O)n(C)c(=O)n(C)c3c12,i,-1.8%,-0.1
CC(C)C(c1nnnn1C1CCCC1)N1CCN(c2ccccc2F)CC1 (stereo unspecified),i,4.9%,-0.54
CC(C)OC(=O)Cn1cnc2ccc(Br)cc2c1=O,i,-0.1%,0.93
Cc1ccc(S(=O)(=O)N2CCC(C(=O)NCCCOC(C)C)CC2)cc1,i,8.8%,x
O=C(c1cccs1)N1CCN(C(=O)C(c2ccccc2)c2ccccc2)CC1,i,-0.2%,x
COc1ccc(-c2csc(N3CCN(Cc4ccc5c(c4)OCO5)CC3)n2)cc1,i,-1.0%,-0.07
CCOC(=O)C1CCCN(C(=O)c2sc3nc(-c4ccc(OC)cc4)cn3c2C)C1 (stereo unspecified),i,-9.4%,-0.98
CCCNC(=O)c1ccccc1NS(=O)(=O)c1ccc(OC)c(OC)c1,i,-9.7%,-0.7
Cn1c(SCC(=O)Nc2cccc(NC(=O)c3cccs3)c2)nnc1-c1ccncc1,i,2.9%,-0.59
Cc1nc2ncnn2c(C)c1CCC(=O)NCCCN1CCN(c2cccc(Cl)c2)CC1,i,0.2%,-0.53
CCn1nc(C)c(/C=N/NC(=O)c2ccoc2C)c1C,i,-0.3%,x
Nc1nc(C(=O)N2CCOCC2)nn1C(=O)c1ccc(Cl)cc1,i,0.0%,-0.55
CCOc1ccc2[nH]c(=O)c(CN(CCCO)C(C)=O)cc2c1,i,1.3%,1.9
O=C1CC(N2CCN(c3cccc(C(F)(F)F)c3)CC2)C(=O)N1c1ccc(F)cc1 (stereo unspecified),i,3.5%,0.08
COC(=O)c1sc(N2C(=O)c3oc4ccccc4c(=O)c3C2c2cccs2)nc1C (stereo unspecified),i,1.3%,-1.9
CCOc1ccc(C(CC(=O)O)NC(=O)c2cccs2)cc1 (stereo unspecified),i,3.4%,x
O=C1NCCCC1C(=O)Nc1ccccc1C(F)(F)F (stereo unspecified),i,-3.4%,x
COc1cc(NC(=O)c2ccc(F)cc2)c(OC)cc1Cl,i,-0.8%,x
CC(O)C(=O)NCCOCCOCCNC(=O)C(C)O (stereo unspecified),i,-7.4%,0.23

# By substructure, the compounds so far with sulfur
SMILES,MT1-MMP promoter,Hsc70 ATP site,WNV NS2B-NS3 inh
Cc1ccc(S(=O)(=O)N2CCC(C(=O)NCCCOC(C)C)CC2)cc1,i,8.8%,x
O=C(c1cccs1)N1CCN(C(=O)C(c2ccccc2)c2ccccc2)CC1,i,-0.2%,x
COc1ccc(-c2csc(N3CCN(Cc4ccc5c(c4)OCO5)CC3)n2)cc1,i,-1.0%,-0.07
CCOC(=O)C1CCCN(C(=O)c2sc3nc(-c4ccc(OC)cc4)cn3c2C)C1 (stereo unspecified),i,-9.4%,-0.98
CCCNC(=O)c1ccccc1NS(=O)(=O)c1ccc(OC)c(OC)c1,i,-9.7%,-0.7
Cn1c(SCC(=O)Nc2cccc(NC(=O)c3cccs3)c2)nnc1-c1ccncc1,i,2.9%,-0.59
COC(=O)c1sc(N2C(=O)c3oc4ccccc4c(=O)c3C2c2cccs2)nc1C (stereo unspecified),i,1.3%,-1.9
CCOc1ccc(C(CC(=O)O)NC(=O)c2cccs2)cc1 (stereo unspecified),i,3.4%,x

# The listing continues.
SMILES,MT1-MMP promoter,Hsc70 ATP site,WNV NS2B-NS3 inh
COc1ccc(S(=O)(=O)N2CCCC(C(=O)NCc3ccncc3)C2)cc1Cl (stereo unspecified),i,-2.9%,1.3
O=C1Nc2ccccc2CCC1Sc1nnc(-c2ccc(Cl)cc2)s1 (stereo unspecified),i,0.4%,x
COc1cccc(C2C(C#N)=C(N)OC3=C2C(=O)CCC3)c1OC(=O)c1ccco1 (stereo unspecified),i,-0.8%,-0.14
O=S(=O)(NCc1ccccc1)c1ccc(Cl)cc1,i,8.4%,x
COc1cccc(C2/C(=C(\O)c3c(C)nc4c(C)cccn34)C(=O)C(=O)N2CCCN(C)C)c1OC (stereo unspecified),i,-8.6%,0.7
O=C(CN1C(=O)c2ccccc2C1=O)N1CCOCC1,i,1.3%,0.51
Cc1cc2n(n1)C(c1c[nH]c3ccccc13)Nc1ccccc1-2 (stereo unspecified),i,-6.9%,-0.63
COc1ccc(NC(=O)[C@@H]2[C@@H]3C(=O)N(C4CCCCC4)C(=O)[C@@H]3C3c4ccccc4C=CN32)cc1 (stereo partly specified),i,-3.4%,-0.07
COC(=O)C1=C(CSc2nc3c(cc2C#N)CN(C)CC3)OC(N)=C(C#N)C1c1ccc(F)cc1 (stereo unspecified),i,3.7%,x
O=C(NCc1ccco1)C1CCN(S(=O)(=O)c2cccc3cccnc23)CC1,i,5.0%,0.23
O=C(Nc1ccc2c(c1)OCO2)C1CCCN1C(=O)OCc1ccccc1 (stereo unspecified),i,2.1%,-0.99
CCCn1c(=S)[nH]c2cc(C(=O)N3CCCC(C(=O)OCC)C3)ccc2c1=O (stereo unspecified),i,-1.8%,-0.79
CCCCn1nc(NC(=O)c2cccs2)c2cc3ccccc3nc21,i,2.2%,0.97
COc1cccc2cc(C(=O)N3C(C)CCCC3C)c(=O)oc12 (stereo unspecified),i,4.2%,x
Cn1c(=O)n(C)c2cc(S(=O)(=O)NCCO)ccc21,i,1.3%,x
O=C(NC1CCN(C(=O)NCc2ccccc2)CC1)c1ccco1,i,-4.3%,-0.21
CC(C)(C)c1ccc(S(=O)(=O)N2CC(=O)Nc3ccccc32)cc1,i,-0.9%,x
COc1cccc(-c2nnn(CC(=O)Nc3ccc(C)cc3C)n2)c1OC,i,0.9%,0.87
O=C(NC(C(=O)N/N=C/c1ccccc1)c1n[nH]c(=O)c2ccccc12)c1ccccc1 (stereo unspecified),i,-1.2%,x
Cc1cccc(N2CCN(Cc3c(C)n(C)n(-c4ccccc4)c3=O)CC2)c1C,i,3.0%,-0.3
Cc1nn(Cc2ccc(Cl)c(Cl)c2)c(C)c1NC(=O)c1cc(-c2ccc3c(c2)OCO3)on1,i,2.6%,-1.2
CC(=O)Nn1cc2c(c1-c1ccccc1)c(=O)n(C)c(=O)n2C,i,5.5%,-0.38
Cc1ccc2nc(C3CCN(C(=O)c4ccco4)CC3)[nH]c2c1,i,-1.7%,-1.4
COc1cc2c(cc1OC)-c1cc(OCc3ccccc3Cl)nc(=O)n1CC2,i,-3.2%,x
Clc1ccccc1-c1nnc2sc(-c3ccccn3)nn12,i,1.1%,-0.79
CSC(=Nc1ccccc1)C1=C(O)COC1=O,i,-4.6%,-0.06
COc1ccc2[nH]c(=O)c(CN(C(=O)NC3CCCCC3)C3CCCC3)cc2c1,i,4.1%,2
O=C1CC(N2CCCCC2)C(=O)N1c1ccccc1 (stereo unspecified),i,-1.2%,x
Cc1cc(=O)oc2cc(OCC(=O)N3CCOCC3)ccc12,i,2.7%,x
Cn1c(NC(=O)C(C)(C)Oc2ccc(Cl)cc2)cc(=O)n(C)c1=O,i,7.0%,0.44
CCOC(=O)N1CCN(c2cc(=O)n(Cc3ccc(F)cc3)c(=O)[nH]2)CC1,i,-5.6%,-0.99
CCN1CCN(c2ccc(NC(=O)c3cccc4ncccc34)cc2)CC1,i,1.2%,1.5
c1ccc(CCn2c(SCc3ccccc3)nnc2-c2ccncc2)cc1,i,2.3%,x
COc1ccc(NC(=O)c2cc(OC)c(OC)c(OC)c2)cn1,i,0.1%,-0.65
COc1ccc(C(=O)N(CN2CCCC2=O)c2ccccc2OC)cc1OC,i,-2.6%,-0.47
Cn1nc(C(=O)N2CCN(S(=O)(=O)c3ccccc3)CC2)c2ccccc2c1=O,i,-0.4%,0.76
Cc1nc(N2CCN(Cc3ccccc3)CC2)[nH]c(=O)c1C,i,-6.4%,0.23
CCN(CC)S(=O)(=O)c1cccc(-c2nnc(SCC#N)n2Cc2ccccc2)c1,i,-3.2%,-0.42
C=CCOc1ccc(/C(O)=C2/C(=O)C(=O)N(CCN3CCOCC3)C2c2ccc(C)cc2)cc1 (stereo unspecified),i,0.6%,1.1
Cc1c(C=O)c(C=O)c(C)n1Cc1ccccc1,i,1.8%,x
CCC(C)NC(=O)CN1C(=O)CC(C)(C)S(=O)(=O)c2ccccc21 (stereo unspecified),i,3.5%,-0.26
CC(C)(C)c1nc(SCC(=O)Nc2ccc(N3CCOCC3)cc2)c2ccccc2n1,i,4.6%,x
Cc1cc(C)cc(NC(=O)c2cccc(NC(=O)C3C4CC5OC(=O)C3C5C4)c2)c1 (stereo unspecified),i,9.3%,x
CCOc1ccc(CCNC(=O)C2CCN(S(=O)(=O)N3CCOCC3)CC2)cc1OCC,i,8.9%,-0.79
COC(=O)N/N=C(\C)c1ccc(Br)cc1,i,6.5%,x
Cn1c(SCc2nc3ccccc3s2)nnc1-c1cccs1,i,0.7%,0.23
Cn1c(=O)[nH]c(=O)c2c1nc(NC1CCCCC1)n2CCO,i,-0.6%,-1.1
Cc1cc(NC(=O)c2cnc3ccccn3c2=O)no1,i,-3.6%,3.1
CCNC(=O)NCCc1c[nH]c2ccc(Cl)cc12,i,-3.9%,1.2
CCc1ccc(C(=O)NCc2cccs2)s1,i,-2.7%,0.68
CCc1nnc(NC(=O)CSc2nnc(-c3ccoc3C)n2-c2ccc(C)cc2)s1,i,2.6%,0.37
CCn1c(/C=C/c2ccc([N+](=O)[O-])o2)nc2ccccc2c1=O,i,-5.6%,x
CCC1(C)CC(c2csc(N)n2)CCO1 (stereo unspecified),i,-4.6%,-0.23
COc1ccc(-c2cc(C(=O)N3CC4(C)CC3CC(C)(C)C4)no2)cc1OC (stereo unspecified),i,1.7%,0.99
COc1ccc(N(C(=O)c2ccccc2OC(C)=O)C(C)C2CC2)cc1 (stereo unspecified),i,6.3%,x
COC(=O)CSc1nc2ccc(NC(C)=O)cc2s1,i,-1.6%,-1.1
COc1ccc(-n2ccc(=O)c3c2CCCC3=O)cc1,i,0.4%,0.43
CCC(=O)Nc1ccc(N2CCN(C(=O)c3ccccc3C)CC2)cc1,i,-5.5%,-0.81
Cc1cc(NC(=O)C23CCC(C)(c4nc5cc(Cl)c(Cl)cc5nc42)C3(C)C)no1 (stereo unspecified),i,5.2%,-0.59
Cc1cccc(NC(=O)c2ccc(S(=O)(=O)N(C)C)cc2)c1,i,-0.1%,0.28

# Three entries drawn at random from those above:
SMILES,MT1-MMP promoter,Hsc70 ATP site,WNV NS2B-NS3 inh
COC(=O)CSc1nc2ccc(NC(C)=O)cc2s1,i,-1.6%,-1.1
Cc1cc(C)cc(NC(=O)c2cccc(NC(=O)C3C4CC5OC(=O)C3C5C4)c2)c1 (stereo unspecified),i,9.3%,x
COc1ccc(-n2ccc(=O)c3c2CCCC3=O)cc1,i,0.4%,0.43

# (more compounds)
SMILES,MT1-MMP promoter,Hsc70 ATP site,WNV NS2B-NS3 inh
Cc1onc(-c2ccccc2Cl)c1C(=O)Nc1cccc(-c2cn3cccnc3n2)c1,i,1.9%,2
COC(=O)c1ccccc1NC(=O)CNC(=O)c1ccco1,i,-6.2%,0.12
CC1CCc2nn(CC(=O)NCc3ccco3)cc2C1 (stereo unspecified),i,-4.8%,-0.14
COc1ccccc1-n1c(SCC(=O)Nc2ccccc2F)nc2[nH]ncc2c1=O,i,1.9%,-0.33
CN1C(C)(C)CC(NC(=O)CCC(=O)NC2CC(C)(C)N(C)C(C)(C)C2)CC1(C)C,i,2.6%,0.17
Cc1ccc(S(=O)(=O)NCc2cn3ccsc3n2)c(C)c1,i,3.9%,-1.8
N#CC1(c2ccccc2)CCCN1C(=O)c1ccccc1Cl (stereo unspecified),i,2.6%,x
COc1ccccc1C(=O)n1nc(-c2ccc(Cl)cc2)nc1N,i,8.7%,0.25
COCCNC(=O)c1cc2c(-c3ccccc3F)nn(C)c2s1,i,-3.7%,-1.2
COc1ccc(C2/C(=C(/O)c3ccccc3)C(=O)C(=O)N2c2ccccn2)c(OC)c1 (stereo unspecified),i,-2.2%,x
Cc1cc(Cl)ccc1OCCCC(N)=O,i,-5.4%,-0.34
Cc1nc2ccccc2c2oc(C(=O)NCc3ccc4c(c3)OCO4)cc12,i,5.8%,-0.86
Cc1ccc(C2CC(=O)N3CN(Cc4ccco4)CSC3=C2C#N)cc1 (stereo unspecified),i,2.1%,-0.54
O=C(NCc1ccccn1)C1CCN(S(=O)(=O)c2cccs2)CC1,i,-7.9%,1.1
COc1ccc(C2/C(=C(\O)c3ccc4c(c3)OCCO4)C(=O)C(=O)N2CCCN(C)C)c(OC)c1 (stereo unspecified),i,-0.1%,0.19
CCCC(=O)Nc1ccc(NC(=O)c2ccccc2Cl)nc1,i,-2.7%,0.23
CC(=O)Nc1nonc1NC(=O)CSc1ncn[nH]1,i,0.8%,1.1
COC(=O)c1ccc(CSc2nnc(SCc3ccc(C(=O)OC)o3)s2)o1,i,-8.4%,-3.5*
Cc1ccc(S(=O)(=O)N2CCC(C(=O)NCCc3ccccc3)CC2)cc1,i,5.1%,x
CN1CCN(C(c2cccc(C(F)(F)F)c2)c2nnnn2Cc2ccccc2)CC1 (stereo unspecified),i,-1.0%,1.1
Cc1cccc(NC(=O)C(NS(=O)(=O)c2ccc3c(c2)CCC(=O)N3)c2ccccc2)n1 (stereo unspecified),i,7.9%,0.27
